Screens deposited in PubChem BioAssay by National Center for Advancing Translational Sciences (NCATS).
NS1 function inh – inhibitors of influenza NS1 protein function; S. cerevisiae slowed by influenza A NS1, growth recovery by OD600; Potency, µM (doses to about 46.1 µM), for inactives: at the top dose activity, positive = more growth; actives 0.4% (n = 270,000); active means well fitted rising curve with a large enough effect; inconclusive means small, poorly fitted or top-dose-only effect; inactive means no such curve, though single readings can be large or run the other way; note: nearly all actives have a fitted effect of over 50% in size
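Read-out: OD600 growth recovery of NS1-expressing budding yeast. Cells grown overnight at 30C in -URA glucose medium, washed, resuspended and diluted 1:100 in 2% galactose assay medium, pH 6.0. Same strain lacking NS1 served as positive control.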
StopGo reporter – FMDV 2A StopGo reporter, luciferase signal | human cells with a luciferase reporter of 2A StopGo recoding; control for the full effect not named in the record | Potency, µM (titrated, usually from 57.9 µM), for the others: top-dose signal change, negative = less light | actives 1.2% (n = 410,000); active = well fitted falling curve with a large enough effect; inconclusive = small, poorly fitted or top-dose-only effect; inactive = no such curve, though single readings can be large or run the other way; tested in HEK293T cells; note: % is set by controls: 0 for no effect and ±100 for the full control effect; nearly all actives have a fitted effect of over 45% in size; luciferase light after 4 h
RE007 growth inh – less growth of the S. pombe RE007 Vpr strain | S. pombe RE007 Vpr strain, BacTiter-Glo ATP luminescence, 24 h; control for the full effect not named in the record | Potency, µM (highest dose often 92.2 µM), without a hit: at the highest dose activity change, negative = less growth | actives 0.21% (n = 360,000) | AID 651644; active = well fitted falling curve with a large enough effect; inconclusive = small, poorly fitted or top-dose-only effect; inactive = no such curve, though single readings can be large or run the other way;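 note: % is set by controls: 0 for no effect and ±100 for the full control effect; nearly all actives have a fitted effect of over 50% in size; the assay follows cell death caused by Vpr and the record does not say whether a fall means rescue or toxicity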
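Fission yeast RE007 carrying one integrated HIV-1 vpr copy, seeded at OD 0.01 in PMG+AL medium with 23 nL pinned compound. Grown 24 h at 30 degrees; viability read by BacTiter-Glo luminescence after 5 min.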
Marburg entry inh – inhibitors of Marburg virus binding or cell entry; AID 540276; actives 1.8% (n = 300,000); Potency, µM (highest dose often 37.8 µM), without a hit: at the highest dose activity change, negative = inhibition, usual class: inhibitors; Marburg virus pseudotyped entry inhibition, cell reporter; control for the full effect not named in the record; about a third of the inactives were read at about 46 µM; active = well fitted inhibition curve with a large enough effect; inconclusive = small, poorly fitted or top-dose-only effect, or effect the other way; inactive = flat fitted curve, though single readings scatter; tested in HEK293 cells; about a fifth of its hits are not listed in these tables; note: % is set by controls: 0 for no effect and ±100 for the full control effect; luciferase read-out
Cruzain noTriton – blocks cruzain activity in detergent-free assay; purified cruzain, Z-FR-AMC fluorescence, no detergent; Potency, µM, inactives show max response, negative = inhibition, actives largely listed as inhibitors; actives 2.3% (n = 200,000); AID 1476;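 note: plate controls were enzyme without inhibitor for no effect and buffer without enzyme for full effect; nearly all actives have a fitted effect of over 40% in size; top concentration of the series not given in the record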
Target sequence (P25779 123-467 limits assumed): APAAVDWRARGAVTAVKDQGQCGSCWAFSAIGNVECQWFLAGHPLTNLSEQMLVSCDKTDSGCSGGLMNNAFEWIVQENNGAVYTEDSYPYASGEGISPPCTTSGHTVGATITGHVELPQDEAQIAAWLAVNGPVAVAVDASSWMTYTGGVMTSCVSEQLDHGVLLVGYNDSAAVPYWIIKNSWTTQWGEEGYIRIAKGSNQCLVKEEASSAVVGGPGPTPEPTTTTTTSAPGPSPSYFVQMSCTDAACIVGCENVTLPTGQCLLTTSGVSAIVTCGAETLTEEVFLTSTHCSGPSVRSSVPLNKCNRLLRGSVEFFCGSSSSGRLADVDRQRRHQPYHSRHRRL
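Purified cruzain at 1.5 nM, pre-incubated 15 min with compound at room temperature in 100 mM sodium acetate pH 5.5, 5 mM DTT, 0.00005% Triton X-100. Reaction started with 2 uM Z-FR-AMC; AMC fluorescence increase over 60 s gives rate.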
Cruzain inh Det – blocks cruzain activity in presence of Triton detergent | Potency, µM, inactives show max response, negative = inhibition, most hits filed as inhibitors | purified cruzain, Z-FR-AMC fluorescence, 0.01% Triton | actives 0.43% (n = 200,000) | P25779;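 note: plate controls were neutral wells for no effect and buffer without enzyme for full effect; nearly all actives have a fitted effect of over 40% in size; top concentration of the series not given in the record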
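Steps: dispense cruzain (1.5 nM final) in acetate buffer pH 5.5 with DTT and 0.01% Triton X-100; pin-transfer compounds; incubate 15 min RT; add Z-FR-AMC (2 uM final); read fluorescence every 30 s, using the 60 s intensity change.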
SARS PLpro yeast – blocks SARS-CoV papain-like protease in a yeast assay; S. cerevisiae expressing SARS-CoV PLpro, growth rescue; control for the full effect not named in the record; Potency, µM (doses to about 32.9 µM), without a hit: at the top dose activity, positive = growth rescue; actives 0.19% (n = 330,000); active means well fitted rising curve with a large enough effect; inconclusive means small, poorly fitted or top-dose-only effect; inactive means no such curve, though single readings can be large or run the other way; note: 0% is about no effect; nearly all actives have a fitted effect of over 55% in size; growth read by luminescence after 48 h
LASV entry inh – inhibitors of Lassa virus binding or cell entry; Lassa virus pseudotype entry inhibition, cell reporter; control for the full effect not named in the record; Potency, µM (top dose mostly 37.9 µM), for inactives: at the top dose activity change, negative = inhibition, usual class: inhibitors; actives 1.2% (n = 300,000); AID 540256; active means well fitted inhibition curve with a large enough effect; inconclusive means small, poorly fitted or top-dose-only effect, or effect the other way; inactive means flat fitted curve, though single readings scatter; tested in HEK293 cells; note: % is set by controls: 0 for no effect and ±100 for the full control effect; nearly all actives have a fitted effect of over 50% in size; luciferase read-out
Numbers without * were called inactive; ? = inconclusive; · = not tested or not shown; & = joins results of further samples; [ ] = another dose, or the depositor's remark. Unless noted, calls come from the whole dose curve; as a rule, active = well fitted curve in the direction sought with a large enough effect; inconclusive = small, poorly fitted or top-dose-only effect, or another doubt; inactive = no such curve, though single readings can be large; an effect the other way counts as inactive or inconclusive. Potency is the fitted concentration of half-maximal effect.

SMILES	NS1 function inh	StopGo reporter	RE007 growth inh	Marburg entry inh	Cruzain noTriton	Cruzain inh Det	SARS PLpro yeast	LASV entry inh
CC(C)c1cc(-c2n[nH]c(=S)n2Cc2ccccc2)cs1	17%	10%	-8%	-4%	4%	-11%	4%	-11%
Cc1ccc(C(=O)CSc2nc3ccccc3c(=O)n2N)o1	-15%	7%	-10%	?	?	-1.2%	1%	62%[14.3 µM]
COc1ccc(S(=O)(=O)N2CCN(Cc3cccnc3)CC2)cc1	-6%	23%	6%	·	·	·	0%	·
COc1ccc(C)cc1S(=O)(=O)N(C)CC(=O)Nc1ccc2c(c1)OCO2	-12%	·	-3%	-1%	-7%	-1.7%	-3%	-19%
O=C(NCCCN1CCOCC1)c1ccc2c(c1)N(Cc1c(F)cccc1Cl)C(=O)CS2	2%	-1%	-12%	?	·	·	-2%	?
Cc1ccc(O)c(CNc2nc3ccccc3n2C)c1	-6%	39%[activator]	-14%	15%	-5%	3.4%	-6%	11%
Cc1cccc(NC(=S)/N=C(\N)Nc2nc(C)c3ccccc3n2)c1	10µM*	-9%	0%	?	?	-6.8%	?	?
O=C(NC(=S)Nc1c(F)cc(F)cc1Br)c1ccc2c(c1)OCCO2	1%	48%[activator]	-7%	·	·	·	0%	·
Cc1ccc2c(=O)cc(C(=O)Nc3sc4c(c3C(=O)NCC3CCCO3)CCC4)oc2c1 (centres undefined)	·	-16%	·	6%[46.1 µM]	-10%	-3.1%	·	0%[46.1 µM]
Cc1ccc(Cl)cc1NC(=O)C(C)n1nnc2sc(-c3ccccc3)cc2c1=O (centres undefined)	·	10%	·	-13%[46.1 µM]	-3%	-6.6%	·	-1%[46.1 µM]
CC(NCc1cccc(S(=O)(=O)N(C)C)c1)c1ccc(F)cc1 (centres undefined)	-3%	-22%	-15%	·	·	·	0%	·
O=C(NNC1CC(=O)N(c2ccccc2)C1=O)c1ccccc1Cl (centres undefined)	3%	5%	-4%	5%[46.1 µM]	·	·	1%	15%[46.1 µM]
CCOC(=O)C1=C(c2ccccc2)NC(SC)=C(C#N)C1c1cccnc1 (centres undefined)	-17%	-6%	-1%	22%	-7%	-5.6%	-2%	-4%
CCn1c2ccccc2c2cc(NC(C)=O)ccc21	-73%	-14%	-11%	18%[46.1 µM]	5%	-3.0%	-3%	14%
Cc1nn(C)c(C)c1CCC(=O)N1CCCC(N2CCN(c3ccc(F)cc3)CC2)C1 (centres undefined)	?	-17%	-10%	·	·	·	2%	·
c1ccc(Nc2n[nH]nc2-c2ccccc2)cc1	-57%	11%	0%	-7%	8%	-4.8%	-18%	1%
CC(=O)Oc1ccc(C(=O)Nc2cccnc2)cc1	8%	2%	0%	-4%	·	·	-9%	14%
CCCCN(CC)CCNc1c(N2CCN(C(=O)OCC)CC2)c(=O)c1=O	?	-21%	0%	-4%	9%	0.2%	11%	18%
Cc1ccc(NC(=O)NCCCN2CCCC2=O)c(C)c1	9%	11%	-1%	10%[46.1 µM]	·	·	1%	-2%[46.1 µM]
COc1ccc(-n2c(C)nc3sc4c(c3c2=O)CCC4)cc1	·	0%	-4%	-10%[46.1 µM]	·	·	-13%	-14%
Cc1noc(C)c1CSCC(=O)Oc1ccc(N(C)S(=O)(=O)c2ccccc2)cc1	·	-7%	-6%	5%	·	·	-3%	-5%
COc1ccc(C(=O)NCc2cc(C)nc3ccccc23)cc1OC	·	?	-16%	?	·	·	-2%	-16%
CC1(C)CC(=O)C2=C(C1)N(c1ccc(F)cc1)C(=O)CC2c1ccccc1 (centres undefined)	2%	-20%	-1%	-8%	4%	-0.1%	-4%	-1%
COc1ccccc1Nc1nc(N)nc(CN2CCN(c3ccccc3F)CC2)n1	1%	-3%	3%	-24%&-24%	-3%	-3.0%	5%	?
O=S(=O)(c1cccc(NC(=S)NCc2ccco2)c1)N1CCOCC1	7%	45%[activator]	-7%	?	-7%	-3.8%	12%	?

(next part)
SMILES	NS1 function inh	StopGo reporter	RE007 growth inh	Marburg entry inh	Cruzain noTriton	Cruzain inh Det	SARS PLpro yeast	LASV entry inh
CCOC(=O)N1CCC(NC(=O)c2sc(-n3cccc3)nc2C)CC1	-4%	0%	-7%	3%	-2%	-4.7%	7%	-7%
O=C(c1ccc(Br)o1)N1CCCc2ccccc21	-8%	15%	?	28%	0%	-3.3%	18%	9%
O=C1COc2ccc(C(=O)COC(=O)c3cc(S(=O)(=O)N4CCOCC4)ccc3F)cc2N1	-11%	-10%	8%	1%	·	·	10%	5%
Cc1ccc(NC(=O)CN(C)Cc2nc3c(Br)cc(Br)cc3c(=O)[nH]2)cc1	·	-13%	3%	0%	·	·	0%	6%
COc1cc(CNc2ccc3[nH]c(=O)[nH]c3c2)ccc1OCC(=O)NC(C)(C)C	-8%	-5%	18%	-20%&-20%	-2%	-1.5%	-9%	?
O=C(NCCCC1CCCC1)C1CCC(=O)N(Cc2cccc(F)c2)C1 (centres undefined)	7%	-14%	5%	-29%[46.1 µM]	·	·	9%	?
CC(C)CCNC(=O)CCn1nc(-c2ccc(Cl)cc2)ccc1=O	2%	0%	9%	·	·	·	-1%	·
O=C(O)C1CCN(S(=O)(=O)c2ccc(N3CCC(O)CC3)c([N+](=O)[O-])c2)CC1	-2%	-9%	5%	-10%	·	·	-4%	-4%
CC(C)c1ccc(CN2CCC(C(=O)NCc3cccnc3)CC2)cc1	-9%	-16%	0%	-19%	5%	12%	18%	-2%
O=C(CCc1ccc(S(=O)(=O)NCc2ccccc2)cc1)NCc1ccc2c(c1)OCO2	0%	-13%	-1%	15%	-5%	1.6%	6%	-13%
CCOC(=O)c1sc(=S)n(CC)c1NC(=O)c1ccccc1	5%	-19%	5%	?	·	·	1%	-9%
CCOc1cc(/C=N/N2CCOCC2)ccc1OCc1ccc(C(=O)OC)o1	·	5%	10%	?	·	·	0%	4%
N#C/C(C(=O)Nc1ccc(Cl)cc1)=C(/S)Nc1ccccc1	-64%	27%	?	-19%[46.1 µM]	·	·	-13%	12%[46.1 µM]
COc1cccc(NC(=O)COC(=O)CCCc2c[nH]c3ccccc23)c1	-117%	19%	-6%	-7%	-3%	-8.3%	-24%	0%
CCC1S/C(=C(\C#N)C(=O)NCc2ccco2)N(c2ccc(Br)cc2)C1=O (centres undefined)	-41%	-9%	-8%	?	-14%	-2.9%	-5%	4%
CC(C)c1ccc(OCCCCN2CCCCC2)cc1	-6%	-10%	-3%	11µM*	·	·	-1%	18%
CN1C(=O)C(Cl)(Cl)C(=O)c2ccccc21	-5%	28µM*	-8%	?	1%	-5.2%	-16%	-22%
Oc1ccc2ccccc2c1Br	1%	-2%	-6%	·	·	·	-2%	·
COc1cccc(NC(=O)N2CCC3(CC2)OCCO3)c1	9%	67%[activator]	11%	22%	5%	-2.6%	-17%	-2%
COC(=O)c1ccc2[nH]c(CO)c(-c3ccccc3)c2c1	9%	18%	13%	·	·	·	-6%	·
CCCCc1nc(N2CCOCC2)c(C#N)c2c1CCCC2	-21%	-30%	1%	-5%&-5%	6%	-4.7%	0%	?
N#Cc1c(-c2ccccc2)nc2n(c1=O)CCS2	-110%	16%	8%	0%	-1%	2.2%	-6%	1%
CCOC(=O)c1[nH]c2ccc(F)cc2c1NC(=O)C(C)N1CCc2cc(OC)c(OC)cc2C1 (centres undefined)	-87%	-16%	-8%	?	7%	-3.8%	1%	?
CC(C)C1=C2OC(N)=C(C#N)C(C#N)=C2C(C)CC1 (centres undefined)	7%	-8%	-1%	-1%	-6%	-3.9%	-8%	-24%
Cc1ccc(S(=O)(=O)Cc2ccc(C(=O)N3CCCCCC3)o2)cc1	3%	-14%	2%	·	-1%	-0.3%	-2%	·

Whole records, quoted from the list. Order of values: NS1 function inh	StopGo reporter	RE007 growth inh	Marburg entry inh	Cruzain noTriton	Cruzain inh Det	SARS PLpro yeast	LASV entry inh
Listed for `COc1cc(CNc2ccc3[nH]c(=O)[nH]c3c2)ccc1OCC(=O)NC(C)(C)C` → -8%	-5%	18%	-20%&-20%	-2%	-1.5%	-9%	?
Listed for `Cc1ccc(NC(=O)CN(C)Cc2nc3c(Br)cc(Br)cc3c(=O)[nH]2)cc1` → ·	-13%	3%	0%	·	·	0%	6%
Listed for `CC(C)CCNC(=O)CCn1nc(-c2ccc(Cl)cc2)ccc1=O` → 2%	0%	9%	·	·	·	-1%	·

The main list resumes; the two compounds before the break are reprinted first.
SMILES	NS1 function inh	StopGo reporter	RE007 growth inh	Marburg entry inh	Cruzain noTriton	Cruzain inh Det	SARS PLpro yeast	LASV entry inh
CC(C)C1=C2OC(N)=C(C#N)C(C#N)=C2C(C)CC1 (centres undefined)	7%	-8%	-1%	-1%	-6%	-3.9%	-8%	-24%
Cc1ccc(S(=O)(=O)Cc2ccc(C(=O)N3CCCCCC3)o2)cc1	3%	-14%	2%	·	-1%	-0.3%	-2%	·
CCCn1nnc(NC(=O)c2cc3ccccc3o2)n1	3%	·	-15%	?	-3%	-1.8%	-12%	4%
CCOc1ccc(N2C(=O)c3ccccc3C2O)cc1 (centres undefined)	-17%	40%[activator]	-10%	·	2%	-5.4%	-8%	·
O=C(NCc1cccs1)c1ccc(Cl)s1	-11%	60%[activator]	13%	-18%	-1%	-5.2%	-5%	-3%
CCOC(=O)C1(Cc2cccc(Cl)c2)CCCN(C(=O)c2ccoc2C)C1 (centres undefined)	-70%	-14%	13%	4%[46.1 µM]	·	·	-11%	?
CC1=C(C(=O)NCCN2CCN(C)CC2)C2(CCC(C)CC2)OC1=O (centres undefined)	-4%	21%	-6%	13%	-7%	5.8%	3%	?
CCOCCCNC(=O)c1ccc(N2CC3CC(C2)c2cccc(=O)n2C3)c(NC(=O)Nc2cccc(OC)c2)c1 (centres undefined)	6%	38%[activator]	10%	·	·	·	-3%	·
COc1cccc(C(=O)Nc2cc(-c3cn4cccnc4n3)ccc2C)c1OC	·	-12%	·	·	-15%	-6.4%	·	12%[46.1 µM]
O=C(CN1C(=O)CC(c2ccco2)Sc2ccccc21)Nc1ccc2c(c1)OCCO2 (centres undefined)	5%	·	9%	1%&-2%	-10%	-10%	0%	2%
